BmaI1 enzyme: BmaI1 acyl-homoserine lactone synthase inhibition – biochemical, fluorescence intensity, with counterscreen (AID 720554); inhibition, %; BmaI1 enzyme assay, fluorescence intensity; stronger effect = higher value; test concentration not given here; a few actives read low; strong numbers were not always called active; actives 0.4% (n = 12,000);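 active = both replicates within 2 robust z-scores of the inhibited control and a quiet counterscreen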;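 note: 0% = uninhibited enzyme and 100% = inhibited control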
BmaI1 enzyme counterscreen: second read-out of BmaI1 enzyme, no call of its own (marks repeat the call); inhibition, %; measured here: counterscreen; design of the counterscreen not given here;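 first of two replicates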
An asterisk follows results filed as active.

SMILES	BmaI1 enzyme	BmaI1 enzyme counterscreen
CCOC(=O)c1nc2c3ccccc3ncn2n1	-15	-4
Cc1noc(C)c1CSc1ncccc1C(=O)Nc1ccnn1C1CCN(C)CC1	22	8
CCOC(=O)c1sc2nc(C)cc(C)c2c1NC(=O)c1cccs1	12	8
Cc1ccc(OC(=O)C2COc3ccccc3O2)cc1C (stereo not drawn)	16	4
COc1ccc(-c2nnc(SCC(=O)N(C)C)n2N)cc1OC	16	4
CN1C(=O)/C(=C\c2coc3ccccc3c2=O)c2ccccc21	15	11
COP(=O)(CC(=O)c1ccccc1)CC(=O)c1ccccc1	16	10
COc1cc(OC)cc(-c2nnc(SC(C)C(=O)c3ccccc3)o2)c1 (stereo not drawn)	11	-2
O=c1c2ccccc2c2c(O)nc(-c3ccccc3)n2n1Cc1ccccc1	16	14
O=C1NC(C(=O)O)Cc2ccccc21 (stereo not drawn)	15	9

The list goes on; the last two above are carried over.
SMILES	BmaI1 enzyme	BmaI1 enzyme counterscreen
O=c1c2ccccc2c2c(O)nc(-c3ccccc3)n2n1Cc1ccccc1	16	14
O=C1NC(C(=O)O)Cc2ccccc21 (stereo not drawn)	15	9
O=C(O)CCn1cc(C(=O)O)c(-c2ccccc2)n1	7	4
O=C1N[C@H](C(=O)O)CS1	6	6
Cc1cnc(NC(=O)C2CCCC2)s1	6	4
COC(=O)c1sc(NC(=O)Cn2cnc3sccc3c2=O)c(C(=O)OC)c1C	10	10
Cc1nnc(SCC(=O)N(C)CC(=O)Nc2ccc(F)cc2)n1Cc1ccccc1	7	14
Cc1cccc(NC(=O)c2ccc(S(=O)(=O)N(C)C)cc2)n1	9	0
CC(C)(C)P(=O)(c1ccncc1)N1CCCCCC1 (stereo not drawn)	11	10
O=C(c1ccc(OCCN2CCCCC2)cc1)c1c(-c2ccc(O)cc2)sc2cc(O)ccc12	24	22
CCCn1c(N)c(C(=O)CN2CC(C)OC(C)C2)c(=O)[nH]c1=O (stereo not drawn)	-15	-2
CNCc1c(C)nn(-c2ccccc2)c1C	6	13
CC(NC(=O)Cn1cc(S(=O)(=O)N(C)C)ccc1=O)c1ccc2c(c1)OCCO2 (stereo not drawn)	9	-2
Cc1ccccc1Nc1nc(N)nc(COC(=O)Cc2ccc(Cl)cc2)n1	8	2
Cc1ccccc1CN(C)CC(=O)NC(=O)NC1CCCCC1	13	12
OCc1nccn1C(F)F	8	6
Cc1occc1C(=O)Nc1ccc(Cl)cc1F	20	4
Cc1ccc2c(C)c(CCC(=O)O)c(=O)oc2c1	12	4
Cc1noc(C)c1CSC1=N/C(=C\c2ccco2)C(=O)N1c1ccc(OC(F)F)cc1	24	14
Cc1cccc(OCCC(=O)NCC2(N3CCOCC3)CCCCC2)c1	-5	-1
Cc1ccc(Cn2c(=O)c3ccccc3n3c(SCC(=O)N4CCCC4)nnc23)cc1	2	-2
FC(F)(F)c1cccc(N2CCNCC2)c1	6	12
O=C(O)c1ccc(NNC(=S)NCC2CCCO2)cc1 (stereo not drawn)	-78	-33
O=C(OCC(=O)N1CCCCC1)c1cc(=O)[nH]c(=O)[nH]1	9	9
O=c1c(-c2ccccc2)c1-c1ccccc1	-1	2
CC(C)n1c(O)c(N=NC(=O)c2ccc(O)cc2)c2ccccc21	22	13
O=C(CN1c2cccc3cccc(c23)S1(=O)=O)N1CCCCCC1	-2	-8
CN(C)C(CNC(=O)c1ccccn1)c1ccco1 (stereo not drawn)	22	-10
COCCn1c(C)cc(C(=O)COC(=O)c2cc(-c3ccco3)nc3ccccc23)c1C	8	-2
CCCCC(=O)N(Cc1ccc(-c2ccccc2-c2nn[nH]n2)cc1)[C@H](C(=O)O)C(C)C	6	0
O=C(c1cnn(C(=O)CSc2nc3ccccc3o2)c1)c1ccccc1O	18	28
O=C(O)c1cc(=O)[nH]c2ccc(S(=O)(=O)Nc3ccc(F)cc3)cc12	10	6
O=C(NCc1ccccc1F)c1cc(=O)c2ccccc2o1	8	2
CCOC(=O)c1sc(/N=C/c2ccc(O)cc2O)cc1C	48	76
CC1CC(=O)Nc2ccccc2N1C(=O)Cn1cnc2ccc(Br)cc2c1=O (stereo not drawn)	4	0
CC(NC(=O)C1CCCN1C(=O)c1cccs1)c1ccc(-n2ccnc2)cc1 (stereo not drawn)	10	6
COC(=O)C(NC=O)C(O)(C#Cc1ccccc1)C(F)(F)F (stereo not drawn)	14	14
NS(=O)(=O)c1ccc(CCNC(=O)CSc2nc3ccccc3c(=O)n2C2CCCC2)cc1	20	10
CC(C)(C)OC(=O)Cn1c(=O)cnc2ccccc21	8	6
C[C@]12Cc3cn[nH]c3C[C@@H]1CC[C@@H]1[C@@H]2CC[C@@]2(C)[C@H]1CC[C@]2(C)O	-1	8
NS(=O)(=O)c1ccc(CCNCC(=O)N2CCc3ccccc32)cc1	13	11
CCC(=O)Nc1sc(CC#N)nc1-c1ccc(C)cc1	29	-20
Cc1cc2oc(=O)cc(CN(C)c3ccccc3)c2cc1Cl	6	7
Cc1cc(C(=O)O)c(C)n1Cc1ccc(S(N)(=O)=O)cc1	16	-2
CN(C)C(=O)C(CCN1CCC(O)(c2ccc(Cl)cc2)CC1)(c1ccccc1)c1ccccc1	8	12
O=C(CSc1ncnc2sc(-c3ccccc3)cc12)NC1CCS(=O)(=O)C1 (stereo not drawn)	8	-1
N#Cc1ccccc1NC(=O)COC(=O)c1ccccc1C(=O)N1CCCC1	4	-2
CCOc1ccc(-c2csc(Cn3c(CN4CCN(C)CC4)nc4ccccc4c3=O)n2)cc1	12	12
CC1Cc2ccccc2O1 (stereo not drawn)	9	8
FC(F)(F)CNC1CCN(Cc2ccccc2)CC1	8	4
CCOc1ccc2oc(C(=O)N3CCCCC3C(N)=O)c(C)c2c1 (stereo not drawn)	14	10
CC1CC2C3CCC4=CC(=O)C=CC4(C)C3(F)C(O)CC2(C)C1(O)C(=O)CO (stereo not drawn)	-6	4

An excerpt taken from the entries so far, as a working copy:
SMILES	BmaI1 enzyme	BmaI1 enzyme counterscreen
CCOC(=O)c1nc2c3ccccc3ncn2n1	-15	-4
Cc1noc(C)c1CSc1ncccc1C(=O)Nc1ccnn1C1CCN(C)CC1	22	8
CCOC(=O)c1sc2nc(C)cc(C)c2c1NC(=O)c1cccs1	12	8
Cc1ccc(OC(=O)C2COc3ccccc3O2)cc1C (stereo not drawn)	16	4
COc1ccc(-c2nnc(SCC(=O)N(C)C)n2N)cc1OC	16	4
CN1C(=O)/C(=C\c2coc3ccccc3c2=O)c2ccccc21	15	11
COP(=O)(CC(=O)c1ccccc1)CC(=O)c1ccccc1	16	10

The list goes on.
SMILES	BmaI1 enzyme	BmaI1 enzyme counterscreen
O=C(Cn1c(=O)oc2ccccc21)Oc1ccc2c(c1)OCO2	57	4
COc1ccc(CN(C)C(C)C(=O)Nc2ccc3c(c2)OCCO3)c(OC)c1 (stereo not drawn)	8	10
Cc1[nH]c2ccccc2c1C(=O)COC(=O)Cn1c(=O)oc2ccccc21	7	-5
CCOc1ccc(S(=O)(=O)N2CCN(C(=O)c3sccc3C)CC2)cc1	1	0
CC1(C)CC(NC2=NCCCCC2)CC(C)(C)N1	2	-8
COc1ccccc1N1CCN(CC(O)COc2cccc3ccccc23)CC1 (stereo not drawn)	-5	11
CN(C)C(CNc1ncnc2sccc12)c1cccs1 (stereo not drawn)	1	4
CSC(=S)NN=C1CCCC1	72	3
O=C(c1c[nH]c(=O)[nH]c1=O)N1CCc2ccccc2C1	0	3
Cc1ccc(C(CC(=O)O)NC(=O)CN2C(=O)c3ccccc3C2=O)cc1 (stereo not drawn)	4	6
CC1CCC2(CC1)NC(=O)N(Cc1ccccc1)C2=O (stereo not drawn)	12	6
COCc1c(C(=O)Nc2ccc(F)cc2)oc2ccccc12	8	-1
CC(OC(=O)c1ccccc1OC(F)F)C(=O)N1CCCc2ccccc21 (stereo not drawn)	15	14
COc1ccccc1C(=O)COC(=O)c1ccccc1O	21	8
CC(OC(=O)c1cccc(C(F)(F)F)c1)C(N)=O (stereo not drawn)	7	0
O=c1cc(O)n(C2CCCC2)c(=S)[nH]1	-13	-10
Cc1cc(-n2c(C)cc(C(=O)COC(=O)C3CCCC3)c2C)no1	6	4
CN(C)S(=O)(=O)c1ccc2nnn(OCC(=O)NCCC3=CCCCC3)c2c1	19	8
Cc1ccc2nc(COC(=O)CSc3ncnc4c3oc3ccccc34)cc(=O)n2c1	13	14
CCOc1ccc(/C=N/OCC(=O)Nc2cc(C)on2)cc1	12	6
O=C(O)c1cccc(NS(=O)(=O)c2ccc3c(c2)OCCCO3)c1	14	6
O=C(COC(=O)CCc1ccc(S(=O)(=O)N2CCOCC2)cc1)Nc1ccccc1OC(F)F	6	1
Cc1nn(-c2ccc(F)cc2)c2sc(C(=O)N(Cc3ccco3)Cc3cccs3)cc12	4	2
CN(C)C1(CNC(=O)Nc2ccccc2)CCCCC1	8	6
CC(=O)NN=C(C1CC1)C1CC1	-106	-73
CC(C(=O)N1CCCC1)N1CCN(S(=O)(=O)c2cccs2)CC1 (stereo not drawn)	13	7
O=C(NCCO)C1=C(N2CCOCC2)/C(=C\c2ccccc2)CC1	14	6
COc1cccc(NC(=O)/C=N/O)c1	38	20
O=c1cnn([C@@H]2O[C@H](CO)[C@@H](O)[C@H]2O)c(=O)[nH]1	6	14
CC(NC(=O)Cn1[nH]c(=O)c2ccccc2c1=O)c1ccc(-n2ccnc2)cc1 (stereo not drawn)	3	2
O=C(Cc1cn2ccsc2n1)NCc1ccccc1	6	2
O=C(C=C1NCCN1)c1ccccc1	-36	3
Cc1noc(C)c1CSc1ccccc1C(=O)Nc1nccs1	-4	0
O=C(c1nn(Cc2ccccc2)c(=O)c2ccccc12)N1CCN(Cc2ccc3c(c2)OCO3)CC1	-3	-4
CCC1(C)NC(=O)N(/N=C/c2cn(-c3ccccc3)nc2-c2cc3ccccc3o2)C1=O (stereo not drawn)	2	-2
CCN1C(=O)/C(=C/c2c[nH]c3ccccc23)c2ccccc21	14	15
O=c1c2c3c(sc2[nH]c(=S)n1Cc1ccco1)CCCC3	96	38
N#CC1=C(N)N(c2ccccc2)C(=O)C1	-10	0
CC(=O)N1CCN(c2ccc(OC[C@H]3CO[C@](Cn4ccnc4)(c4ccc(Cl)cc4Cl)O3)cc2)CC1	-18	-14
O=C(COC(=O)c1ccc2c(c1)OCO2)NC1C2CC3CC(C2)CC1C3 (stereo not drawn)	6	-4
N#Cc1ccc(OC(=O)c2ccc(-c3cccc(C(F)(F)F)c3)o2)cc1	18	10
CCCN(CC1CC1)C(=O)CSc1n[nH]c(=O)n1CC	-8	0
C/C(=N\Nc1ccccc1)C1Cc2ccccc2C(=O)O1 (stereo not drawn)	98	72
COc1ccc(C(N)=O)c(O)c1	5	10
N#Cc1ccc(C2Oc3ccccc3C3CC(c4ccc5c(c4)OCCO5)=NN32)cc1 (stereo not drawn)	18	12
CCc1nnc2c3cnn(-c4ccccc4)c3nc(C)n12	12	12
O=c1[nH]ncc(N2CCCC2)c1Br	38	-5
N#CC(c1ccco1)N1CCN(C(C#N)c2ccco2)CC1 (stereo not drawn)	-16	-10
NC(=O)c1nc(Cl)c(Cl)c(Cl)c1Cl	14	7
c1ccc2c(c1)OCCCO2	6	-2

Laid out differently: entries from further up.
> N#Cc1ccc(OC(=O)c2ccc(-c3cccc(C(F)(F)F)c3)o2)cc1
  BmaI1 enzyme: 18 | BmaI1 enzyme counterscreen: 10

> CCCN(CC1CC1)C(=O)CSc1n[nH]c(=O)n1CC
  BmaI1 enzyme: -8 | BmaI1 enzyme counterscreen: 0

> C/C(=N\Nc1ccccc1)C1Cc2ccccc2C(=O)O1 (stereo not drawn)
  BmaI1 enzyme: 98 | BmaI1 enzyme counterscreen: 72

> COc1ccc(C(N)=O)c(O)c1
  BmaI1 enzyme: 5 | BmaI1 enzyme counterscreen: 10

Remaining list, next part
SMILES	BmaI1 enzyme	BmaI1 enzyme counterscreen
CCOC(=O)C1=C(CC)Nc2ccccc2N=C1NC(=O)C1CC(=O)N(CCc2ccccc2)C1 (stereo not drawn)	1	0
O=C(O[C@@H]1Cc2c(O)cc(O)cc2O[C@@H]1c1cc(O)c(O)c(O)c1)c1cc(O)c(O)c(O)c1	21	8
CCN(CC)S(=O)(=O)c1ccc(NC(=O)C2CC(O)CN2S(=O)(=O)c2ccc(OC)cc2)cc1 (stereo not drawn)	12	6
C(=N\c1nc2ccccc2s1)/Nc1nc2ccccc2s1	11	8
CC12CCC(=O)N1C(C(=O)OCN1C(=O)c3ccccc3C1=O)CS2 (stereo not drawn)	12	6
O=C(NCCO)c1ccc(OC2OCCOC2Oc2ccc(C(=O)NCCO)cc2)cc1 (stereo not drawn)	17	15
Cc1ccc(NC(=O)NCCC(C)C)cc1NC(=O)NCCC(C)C	14	-1
O=C(CNc1ccc(Cl)c(C(F)(F)F)c1)Nc1ccc(N2CCOCC2)cc1	10	12
N#Cc1ccccc1OC(=O)CCN1C(=O)c2ccccc2C1=O	20	-7
CCn1c(SC(C)C#N)nnc1-c1cccs1 (stereo not drawn)	7	0
O=C(OCC(=O)N(C1CCCCC1)C1CCCCC1)c1ccc(Br)o1	-8	-10
O=C1CCN(C(=O)c2ccc(-c3cccc(C(F)(F)F)c3)o2)CC1	3	-3
COC(=O)C1Cc2ccccc2CN1Cn1nc(-c2ccco2)n(-c2ccccc2)c1=S (stereo not drawn)	38	13
CC(c1ccco1)N(C(=O)COc1ccc(Cl)cc1)c1ccccn1 (stereo not drawn)	16	6
O=c1cc[nH]c2c(Cl)c(Cl)ccc12	15	3
CCN(CC)S(=O)(=O)c1cccc(C(=O)N=Nc2c(O)[nH]c3ccccc23)c1	12	6
CC(=O)[C@H]1CC[C@H]2[C@@H]3CCC4=CC(=O)CC[C@]4(C)[C@H]3CC[C@]12C	3	10
COC(=O)c1sc(NC(=O)CN2CCOCC2)c(C(=O)OC)c1C	3	0
Cc1nn(C2CCS(=O)(=O)C2)c(Cl)c1/C=C/C(=O)OCCN1C(=O)c2ccccc2C1=O (stereo not drawn)	1	-2

Screening data from PubChem.

Only part of the results is shown; the hit share may differ from the screen's.
